Vaccinia Venus: qHTS for Stage-Specific Inhibitors of Vaccinia Orthopoxvirus: Venus Reporter Primary qHTS. AID 720580, 2013. Potency, µM (series often up to 36.5 µM), without a hit: at the top dose activity change, negative = inhibition, hits mostly inhibitors. 330,000 compounds, 0.46% hits. Vaccinia virus Venus reporter expression, fluorescence; active means well fitted inhibition curve with a large enough effect; inconclusive means small, poorly fitted or top-dose-only effect; inactive means no such curve, though single readings can be large or run the other way; tested in A549 cells; further: nearly all actives have a fitted effect of over 30% in size; inactives centre near -10
VACV mCherry inh: qHTS for Stage-Specific Inhibitors of Vaccinia Orthopoxvirus: mCherry Reporter Primary qHTS; Vaccinia virus mCherry reporter infection, fluorescence; about a quarter of the inactives have no number; Potency, µM (highest dose often 36.5 µM), inactives show at the highest dose activity change, negative = inhibition, actives largely listed as inhibitors; 310,000 compounds, 0.63% hits; AID 720579, 2013; active = well fitted inhibition curve with a large enough effect; inconclusive = small, poorly fitted or top-dose-only effect; inactive = no such curve, though single readings can be large or run the other way; tested in A549 cells; further: nearly all actives have a fitted effect of over 35% in size; inactives centre near -10
Active calls of the source: *; i = inactive; ? = inconclusive; . = no result given; & = joins results of further samples. On the % scale 0 is the no-effect control and ±100 the full control effect; potency means the concentration at half of the fitted maximal effect.

SMILES	Vaccinia Venus	VACV mCherry inh
Cc1ccccc1-c1ccc2c(c1)O[C@H](CN(C)C(=O)C1CC1)[C@@H](C)CN([C@@H](C)CO)S2(=O)=O	?	-12.6%
N#C/C(=C\Nc1ccc2c(c1)OCCO2)c1nc2ccccc2[nH]1	?	?
COc1ccc(CNC(=O)C(=O)NCC(c2ccco2)S(=O)(=O)c2ccc(C)cc2)cc1 (configuration not stated)	-12.6%	-2.0%
Cc1ccc(C(C)C)c(OCCn2c(=O)oc3ccccc32)c1	-14.5%	.
CC1CCN(S(=O)(=O)N2CCC(C(=O)NCCN3CCOCC3)CC2)CC1	-5.9%	i
O=C1C=CC(=O)N1CCCCCCCCCCN1C(=O)C=CC1=O	-4.6%	-4.4%
CC1C=CCC2C(=O)N(c3cccc(C(=O)N4CCN(c5ccc(F)cc5)CC4)c3)C(=O)C12 (configuration not stated)	-9.3%	-7.9%
CCN(C(=O)COC(=O)c1cccnc1Nc1ccccc1F)C1CCS(=O)(=O)C1 (configuration not stated)	-0.5%	-7.1%
COc1ccc(OC)c(NC=C2C(=O)OC(C)(C)OC2=O)c1	-14.2%	i
C=CCOc1ccc2c(c1)c(S(=O)(=O)c1ccc(C)cc1)cn2COC	0.6%	-17.2%
CCOc1ccc(S(=O)(=O)N2CCOCC2)cc1NC(=O)Cc1c(F)cccc1Cl	-12.6%	i
Cc1ccc(NCCC(=O)c2cccc([N+](=O)[O-])c2)cc1	-4.8%	-14.2%
COc1ccc(OC)c(NC(=O)C2CCN(C(=O)C3CC(=O)N(c4ccc(C)cc4)C3)CC2)c1 (configuration not stated)	-11.2%	11.0%
N=C(N)SCc1ccc(Cl)c2ccccc12	-6.4%	i
CC1=C(C(N)=O)C(c2ccccc2F)n2nc(-c3ccc(Cl)cc3)nc2N1 (configuration not stated)	-0.1%	-5.9%
Cc1ccc2nc(-c3ccc(O)cc3)c(Nc3ccc4c(c3)OCO4)n2c1	-11.6%	-12.7%
Cc1nn(CCc2nc(-c3ccco3)cs2)c2[nH]c(=O)cc(C(F)(F)F)c12	-1.9%	-12.7%
O=C1CC(N2CCOCC2)C(=O)N1c1cccc(Cl)c1 (configuration not stated)	8.7%	.
CCOC(=O)Cn1c(=O)oc2cc(S(=O)(=O)N3CCN(c4cc(C)ccc4C)CC3)ccc21	-14.6%	-19.4%
CCN(CC(=O)Nc1cccc(S(=O)(=O)N2CCOCC2)c1)Cc1ccccc1	-16.0%	-1.2%
Cc1cnc(C(=O)N(c2ccc(N3CCOCC3)cc2)C2C(=O)Nc3ccccc3N=C2c2ccc(F)cc2)cn1 (configuration not stated)	1.1%	14.3%
Oc1ccc(-c2nnc(SCc3ccccc3)o2)cc1	-23.7%	-8.5%
O=C(CCc1nc2ccccc2c(=O)[nH]1)NCCN1C(=O)S/C(=C\c2ccc(Cl)cc2Cl)C1=O	-21.2%	-24.2%
Cc1ccc(NC(=O)C2CCCN(c3ncnc4c3nc3n4CCCCC3)C2)nc1 (configuration not stated)	-24.5%	i
Cc1c(Br)cccc1NC(=O)C1(C)CCN1Cc1ccccc1OC(F)F (configuration not stated)	-5.7%	-3.2%
CCOC(=O)C1CCN(C(C(=O)Nc2ccc3c(c2)OCCO3)c2ccccc2)CC1 (configuration not stated)	-13.8%	-21.3%
S=C(c1cccs1)N1CCN(c2ccccc2)CC1	-19.0%	-4.7%
O=C1c2c(O)cccc2Cc2cccc(O)c21	10.2%&-7.1%	6.3%&-12.2%
CCc1ccc2oc(-c3cc(NC(=O)c4cccnc4)cc(C)c3O)nc2c1	-4.5%	-4.5%
NC(=O)C1CCN(C(=O)CN2CCc3ccccc32)CC1	0.4%	.
COc1ccc(C(=O)/C=C/c2cccs2)c(OC(=O)N2CCOCC2)c1	-1.3%	i
COc1ccc(NC(=O)C2CCCC2)cc1	-5.9%	-0.2%
C[C@H]1CN([C@@H](C)CO)C(=O)Cc2cc(NC(=O)Cc3cn(C)c4ccccc34)ccc2O[C@@H]1CN(C)S(=O)(=O)c1cn(C)cn1	-5.9%	i
NC(=O)CC(NC(=O)Cc1cccc2ccccc12)c1ccc(NC2CCCCCCC2)c([N+](=O)[O-])c1 (configuration not stated)	-7.2%	i
COc1ccc2[nH]cc(CCNC(=O)CC[C@H]3O[C@@H](n4cc(C)c(=O)[nH]c4=O)C[C@@H]3O)c2c1	-0.4%	i
CCN(CC)S(=O)(=O)c1ccc(NC(=O)Cn2c(=O)oc3ccccc32)cc1	-16.8%	i
CCn1c(COc2ccccc2C)nnc1SCC(=O)N1CCN(c2ccccc2)CC1	?	-12.4%
O=C(NCC1CCCO1)c1cc2cc(Cl)ccc2[nH]1 (configuration not stated)	-18.6%	-11.5%
CCc1ccc(NC(=O)CS(=O)CC(=O)NCCCc2ccccc2)cc1 (configuration not stated)	-5.9%	-12.9%
Nc1cc(Cl)ccc1Nc1ccncc1	-9.0%	-15.8%
CCOC(=O)CCCC(=O)N1CCOCCOCCOCC1	0.2%	-12.8%
O=C(CC1NCCNC1=O)Nc1cc(Cl)cc(Cl)c1 (configuration not stated)	-7.5%	-14.0%
CN(C)S(=O)(=O)N(CC(=O)Nc1ccccc1)c1ccccc1	?	.
Cc1ccn2cc(-c3cnoc3C)nc2c1	-14.2%	-6.9%
COc1cccc(NC(=O)N(C)C[C@@H]2OCc3cn(nn3)CCCC(=O)N([C@H](C)CO)C[C@H]2C)c1	-10.1%	-5.5%
COc1c(F)cccc1C1=CC(=O)C[C@H](c2ccc3c(c2)OCO3)C1	-14.0%	-4.7%
O=C(c1ccco1)N1CCC(c2nc3ccccc3[nH]2)CC1	-6.2%	i
CC(C)(C)N(Cc1cc2ccccc2[nH]c1=O)C(=O)C1CCCCC1	-18.8%	-18.1%
CCOc1ccccc1CNC(=O)c1ccc2c(c1)nc1n2CCC(C)C1 (configuration not stated)	-9.9%	-18.6%
Cc1ccc(S(=O)(=O)N(C)C)cc1-n1c(SCC(=O)Nc2ccc(F)cc2Cl)nc2ccccc2c1=O	-13.8%	-14.8%
CC(=Nc1ccccc1)C1=C(O)COC1=O	-14.2%	-17.4%
O=C(Cn1ncc2ccccc2c1=O)Nc1cccc(C(F)(F)F)c1	-2.2%	-11.8%
CC(C)(CN1CCN(C(c2ccccc2)c2ccccc2)CC1)NS(=O)(=O)c1ccccc1	-26.1%	?
c1ccc(-c2cc(-c3nc(-c4ccccn4)no3)c3ccccc3n2)cc1	-14.7%	.
O=C(N/N=C/c1ccc(-c2ccc(Br)cc2)o1)c1ccc2c(c1)OCO2	-27.6%	-18.8%
O=C(C[C@H]1C/C=C\CC[C@H](Cc2ccc(F)cc2)C(=O)OC[C@@H]2CCCN2C1=O)N[C@H](CO)Cc1ccccc1	-22.5%	-5.8%
O=C(CC(c1ccccc1)c1ccccc1)Nc1ccc(O)cc1	1.5%	-7.0%
Cc1cnc(-n2ncc(C(=O)N(C)C3CCOC3)c2C)nc1-c1ccc(F)cc1 (configuration not stated)	8.3%	-10.5%
CCOc1cc(C2CC(=O)NC(SCC)=C2C#N)ccc1O (configuration not stated)	-6.1%	?
O=C(COc1ccc(Cl)cc1)Nc1ccccc1C(=O)OCc1cc(=O)n2ccsc2n1	-8.5%	-16.2%

The listing continues.
SMILES	Vaccinia Venus	VACV mCherry inh
Cc1cc2c(cc1C)CSC(c1ccc(O)cc1)SC2	-7.8%	-22.0%
CN1CCN(C(c2cccnc2)c2ccc3cccnc3c2O)CC1 (configuration not stated)	-5.2%	-1.6%
CCCCN(CC)CCCNC(=O)c1ccc2c(c1)NC(=O)CN2C	-7.6%	-10.7%
COc1ccc(-c2ccc3nnc(SCC(N)=O)n3n2)cc1	-12.7%	-12.7%
Cc1ccc(-c2n[nH]c(=S)nc2-c2ccc(C)cc2)cc1	-29.5%	i
CN(C)c1ccc(C(CNS(=O)(=O)c2ccc(F)cc2)N2CCc3ccccc32)cc1 (configuration not stated)	-14.3%	-17.9%
O=[N+]([O-])c1cccc(-c2ccc(/C=N/n3c(-c4ccccc4)n[nH]c3=S)o2)c1	-3.1%	i
CCOC(=O)c1c(-c2ccccc2)csc1NC(=O)/C(C#N)=C/c1ccc(OC)c(OC)c1	0.0%	-14.0%
COc1ccc(-c2csc(NC(C)c3nc4cc(C(=O)NCCCO)ccc4n3Cc3ccc(C)cc3)n2)cc1 (configuration not stated)	-24.7%	?
CN(C)c1nc2c(N)ncnc2n1C1OC(CO)C(O)C1O (configuration not stated)	-8.6%	-14.8%
COc1ccc(-c2sc3ccccc3c2/C=C/c2ccc(N)cc2)cc1	-14.5%	?
O=C(CN1C(=O)C(=O)N(Cc2ccccc2)C1=O)Nc1ccc(OC(F)F)cc1	-17.2%	i
CCN(c1cccc(C)c1)S(=O)(=O)c1nnc(NC(=O)c2ccco2)s1	-29.4%	-20.6%
O=C(CNC(=O)c1ccccc1)NCCO	1.0%	i
CN(C(=O)c1ccc(NC(=O)Cc2cccc(NC(=O)C3CCCN(C(=O)c4ccccc4)C3)c2)cc1)C1CC1 (configuration not stated)	-8.0%	-8.5%
O=C(O)c1cc(-c2ccc(Cl)cc2)n[nH]1	-18.4%	.
CCN(CC)c1ccc(NC(=O)c2cncc(Br)c2)cc1	-9.0%	i
CCOC(=O)C1=c2s/c(=C\c3cccnc3)c(=O)n2C(N)=C(C(=O)OC)C1c1cccnc1 (configuration not stated)	0.5%	-12.5%
Cn1c(=O)c2c(nc(CN3CCCCC3)n2CCc2ccccc2)n(C)c1=O	-8.4%	.
CC(O)[C@H]1CN=C(N)N1CC1CCCCC1 (some centres not stated)	-7.3%	-1.6%
Cc1ccc(NC(=S)N(CCN(C)C)C(C)c2cccnc2)c(C)c1 (configuration not stated)	1.2%	i
Cc1nnc(SCC(=O)NCc2ccccc2)n1-c1ccccc1	-9.5%	-6.4%
CC(C)C[C@@H](CN=[N+]=[N-])N1CCN(CC(C)C)CCC1=O	-9.4%&-18.5%	-13.6%&-18.9%
O=C(COc1ccc(Cl)cc1)N1CCN(Cc2ccccc2)CC1	-11.4%	-14.6%
CC(=O)c1c(C)[nH]c(C(=O)Nc2ccc(C)c(S(=O)(=O)N(C)C)c2)c1C	-12.4%	-5.0%
Fc1ccc(C2=Nc3cccc4cccc(c34)N2)cc1	-4.7%	-2.1%
COc1ccc(-n2nnnc2SCC(=O)c2ccc3c(c2)OCCO3)c(OC)c1	1.5%	-13.5%
CC(C)N(C(=O)[C@H]1C[C@H](CC(=O)NCc2ccco2)C(=O)N2CCc3c([nH]c4ccc(Cl)cc34)[C@]12C)C(C)C	?	?
CC(=O)NC(Cc1ccc(F)cc1)C(=O)NC1CCN(c2nnnn2-c2ccccc2)CC1 (configuration not stated)	-5.5%	-13.5%
COc1cc(OC)c(C2=NOC(C(=O)N3CCN(C(=O)c4ccco4)CC3)C2)cc1Cl (configuration not stated)	-13.5%	-5.2%
CCOc1ccc(C2C(C(=O)O)c3ccccc3C(=O)N2CCN2CCOCC2)cc1 (configuration not stated)	-6.8%	-7.0%
Cc1ccc2c(c1)-c1c(cnn1CC(=O)N1CCN(c3cc(C)ccc3C)CC1)CO2	-13.7%	-21.0%
OCC1(Cc2ccccc2F)CCCN(Cc2c(F)ccc(F)c2F)C1 (configuration not stated)	-9.0%	-11.4%
Cc1cccc(N=CC=C2OC(C)(C)C(C)(C)O2)c1	-6.6%	-19.9%
COC(=O)c1c(NC(=O)CN2CCN(S(=O)(=O)c3ccccc3[N+](=O)[O-])CC2)sc2c1CCC(C)C2 (configuration not stated)	-6.2%	i
COc1ccccc1N1CCN(c2nc3c(S(=O)(=O)c4ccccc4)nnn3c3ccc(Cl)cc23)CC1	-17.4%	-17.1%
O=C(OCc1cc([N+](=O)[O-])cc2c1OCOC2)c1cccnc1SC(F)F	-10.5%	-14.2%
CC(C)CCNC(=O)Cc1ccccc1[N+](=O)[O-]	-3.6%	-5.5%
O=C(Nc1ccccc1)C12CC1/C(=N\O)c1ccccc1O2 (configuration not stated)	-12.5%	i
CCCOC(=O)CSc1nc(N)c(C#N)c(CC)c1C#N	?	-3.8%
COc1ccccc1C(=O)NC(=O)COC(=O)c1ccc(C)o1	0.8%	i
CCOC(=O)C1=C(N)OC2=C(C(=O)CCC2)C1c1cccs1 (configuration not stated)	-13.7%	i

Quoted at random: 4 compounds from above
SMILES	Vaccinia Venus	VACV mCherry inh
CC(=O)NC(Cc1ccc(F)cc1)C(=O)NC1CCN(c2nnnn2-c2ccccc2)CC1 (configuration not stated)	-5.5%	-13.5%
CCn1c(COc2ccccc2C)nnc1SCC(=O)N1CCN(c2ccccc2)CC1	?	-12.4%
CCOC(=O)C1=C(N)OC2=C(C(=O)CCC2)C1c1cccs1 (configuration not stated)	-13.7%	i
Cc1cnc(C(=O)N(c2ccc(N3CCOCC3)cc2)C2C(=O)Nc3ccccc3N=C2c2ccc(F)cc2)cn1 (configuration not stated)	1.1%	14.3%

Source: PubChem BioAssay (National Center for Advancing Translational Sciences (NCATS))
